# Ecoli rRNA inh – selective bacterial rRNA inhibition in E. coli | 350,000 compounds, 1.6% hits | AID 720706 | GFP signal change (wild-type ribosome), % (test concentration not listed) | E. coli WT GFP vs humanized-ribosome RFP mutants, fluorescence, 24 h; active compounds read low; DMSO median 0, no signal -100;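 active means significant combined selectivity score with lowered wild-type GFP, culture density cut under 30%, mutant RFP and density less affected; inactive means any of these conditions unmet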; further: one replicate is shown; some compounds called inactive have numbers as strong as hits
# AF4-AF9 inh – inhibitors of human MLL-AF4/AF9 interaction. P42568. AlphaScreen, biotin-AF4 peptide binding to FLAG-AF9. inhibition, % at 10 µM. 350,000 compounds, 0.47% hits. AID 651704;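 active means every replicate reaching a set inhibition limit, whatever the replicate mean, cut at about 25% in these data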;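 further: 0% = plate neutral control median and 100% = total signal loss; the record names both 10 and 1 µM as test concentration; the first replicate is given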
# Target sequence (P42568 whole entry, looked up): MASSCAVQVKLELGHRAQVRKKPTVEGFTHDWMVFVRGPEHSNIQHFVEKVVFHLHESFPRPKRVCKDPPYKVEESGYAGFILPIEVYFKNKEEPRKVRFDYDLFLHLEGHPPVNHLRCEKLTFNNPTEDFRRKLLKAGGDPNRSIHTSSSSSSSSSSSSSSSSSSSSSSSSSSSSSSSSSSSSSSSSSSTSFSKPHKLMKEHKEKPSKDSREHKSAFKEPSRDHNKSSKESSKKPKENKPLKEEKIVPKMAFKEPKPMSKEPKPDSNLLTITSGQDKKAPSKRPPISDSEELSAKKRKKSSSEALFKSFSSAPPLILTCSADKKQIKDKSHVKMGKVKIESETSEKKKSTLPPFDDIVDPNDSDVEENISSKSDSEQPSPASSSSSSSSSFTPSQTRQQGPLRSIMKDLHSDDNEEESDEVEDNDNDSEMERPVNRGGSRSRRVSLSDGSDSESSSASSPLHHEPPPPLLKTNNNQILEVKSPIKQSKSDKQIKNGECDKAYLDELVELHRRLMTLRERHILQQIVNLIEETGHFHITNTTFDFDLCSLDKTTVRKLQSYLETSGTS
# Ecoli rRNA inh OD600 – recorded beside Ecoli rRNA inh, whose call it bears; OD600 change, %; measured here: OD600 growth;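 optical density of the mix in the first replicate; 0 = DMSO median and -100 = no signal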
# Ecoli rRNA inh RFP – recorded beside Ecoli rRNA inh, whose call it bears; RFP signal change, %; measured here: RFP humanized mutant strains;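 first replicate; 0 = DMSO median and -100 = no signal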
# * = called active by the depositor. Not all compounds are listed; rates above refer to the full screens.
SMILES,Ecoli rRNA inh,Ecoli rRNA inh OD600,Ecoli rRNA inh RFP,AF4-AF9 inh
COc1cccc(NC(=O)Nc2ccc3c(c2)C(=O)N(C)C[C@@H](OC)[C@H](C)CN(CC2CC2)[C@@H](C)CO3)c1,0,6,2.0,7.4
Cc1ccc(S(=O)(=O)Nc2ccc3c(c2)CC(=O)N([C@H](C)CO)C[C@H](C)[C@@H](CN(C)CC2CC2)O3)cc1,-1,4,-1.0,2.4
CC(C)CC#Cc1cnc2c(c1)C(=O)N([C@H](C)CO)C[C@H](C)[C@@H](CN(C)C(=O)Nc1ccccc1F)O2,0,-2,4.0,-0.8
CCS(=O)(=O)N1CC2(C1)[C@H](c1ccccc1)[C@@H](CO)N2Cc1ccccn1,-1,6,-0.6,-0.3
C[C@@H]1CCCCO[C@@H](CN(C)Cc2ccncc2)[C@@H](C)CN([C@@H](C)CO)C(=O)c2cc(NS(=O)(=O)c3ccc(F)cc3)ccc2O1,-2,-11,1.2,-2.9
COc1ccc(NC(=O)Nc2ccc3c(c2)C(=O)N([C@H](C)CO)C[C@@H](C)[C@H](CN(C)Cc2ccc(Cl)c(Cl)c2)OCCCC[C@H](C)O3)cc1,4,2,-0.5,3.7
CC(C)(C)c1ccc(S(=O)(=O)NC(=O)C2(C)CCN2C(=O)C2CCCCC2)cc1 (configuration not stated),-3,-1,1.4,-0.1
CC(=O)N(C)C[C@H]1Oc2ncc(-c3ccc(F)cc3)cc2C(=O)N([C@@H](C)CO)C[C@@H]1C,1,9,-3.8,-3.6
COCCN(C[C@H]1[C@H](c2ccccc2)[C@@H](CO)N1C(=O)C1CC1)C(C)=O,-1,5,-2.1,-15
C[C@H](CO)N1C[C@H](C)[C@@H](CN(C)C(=O)Nc2ccccc2)Oc2ccc(NC(=O)Nc3cccc4ccccc34)cc2C1=O,-2,-1,-0.9,2.5
COc1cccc(CNC(=O)C[C@@H]2C=C[C@H](NS(=O)(=O)c3ccccc3OC)[C@@H](CO)O2)c1,4,5,-1.5,-0.4
C[C@H](CO)N1C[C@H](C)[C@@H](CN(C)S(=O)(=O)c2cn(C)cn2)Oc2c(NC(=O)c3ccc(-c4nccs4)cc3)cccc2C1=O,1,1,0.5,-2.7
C[C@@H]1CN([C@H](C)CO)C(=O)c2cc(NC(=O)CCCCCC(=O)Nc3ccccc3N)ccc2O[C@@H]1CN(C)Cc1ccc(Cl)c(Cl)c1,-5,-10,25,4.9
C[C@H](CO)N1C[C@H](C)[C@@H](CN(C)C(=O)N[C@H](C)c2ccccc2)OCc2ccccc2-c2c(n(C)c3ccccc23)C1=O,-7,-1,1.3,4.0
CC(=O)N1[C@@H](CO)[C@@H](c2ccccc2)C12CN(C(=O)c1ccccc1)C2,0,1,0.9,-0.6
C[C@@H]1CN([C@H](C)CO)C(=O)c2cccc(NC(=O)C3CCCCC3)c2O[C@H]1CN(C)C(=O)Nc1ccc(F)cc1,-1,6,2.1,-2.0
O=C(C[C@@H]1CC[C@H]2[C@@H](COC[C@H](O)CN2Cc2cccc(F)c2)O1)NCCc1ccncc1,4,5,-2.8,1.8
C[C@H](CO)N1C[C@H](C)[C@@H](CN(C)C(=O)Nc2ccc3c(c2)OCO3)OCCCC[C@H](C)Oc2ccc(NC(=O)C3CCCCC3)cc2C1=O,-3,3,3.8,1.2
N#C[C@@H]1[C@@H](c2ccc(-c3ccncc3)cc2)[C@@H](CO)N1C(=O)C1CCOCC1,-2,9,-3.7,1.2
C[C@@H](O)C#Cc1cnc2c(c1)C(=O)N([C@@H](C)CO)C[C@H](C)[C@H](CN(C)C(=O)CN(C)C)O2,4,5,-0.9,-1.7
COc1cccc(S(=O)(=O)N2C[C@H](O)COC[C@H]3O[C@H](CC(=O)N4CCN(C)CC4)CC[C@@H]32)c1,-1,5,0.3,-2.0
Cc1noc(C)c1-c1ccc(C(=O)N2CCN(C)CC2)c2occc12,3,11,-3.4,-1.6
CC(C)NC(=O)Nc1cccc2c1O[C@@H](CN(C)C(=O)Nc1cccc3ccccc13)[C@@H](C)CN([C@H](C)CO)C2=O,1,0,-1.0,1.4
O=C(C[C@@H]1CC[C@H]2[C@@H](COC[C@@H](O)CN2C(=O)Cc2ccccc2)O1)NC1CCCC1,0,13,0.6,-1.5
CN1c2ccc(Br)cc2[C@@H]2[C@@H](CCN2S(=O)(=O)c2ccc(F)cc2)[C@H]1CO,-2,-20,-3.5,-3.8
C[C@@H]1CN([C@H](C)CO)C(=O)c2cc(-c3ccccc3F)cnc2O[C@H]1CN(C)C(=O)CN(C)C,2,8,0.7,-3.5
O=C(c1ccccn1)N1CC2(C1)[C@H](c1ccccc1)[C@@H](CO)N2C(=O)C1CCCCC1,-3,-2,0.4,-2.2
COc1ccc(NC(=O)N(C)C[C@H]2Oc3ccc(NS(=O)(=O)c4ccc(OC)cc4)cc3CC(=O)N([C@@H](C)CO)C[C@@H]2C)cc1,2,5,-2.0,2.2
COc1ccc(C#Cc2ccc([C@H]3[C@@H](CO)N4C(=O)CN(C(=O)c5ccncc5)C[C@@H]34)cc2)cc1,1,-1,4.8,-3.6
CO[C@H]1CN(C)C(=O)c2cc(NS(=O)(=O)c3ccc(C)cc3)ccc2OC[C@H](C)NC[C@H]1C,1,0,1.0,-2.7
C[C@@H]1CN([C@@H](C)CO)C(=O)c2c(c3ccccc3n2C)-c2ccccc2CO[C@@H]1CN(C)C(=O)Nc1ccccc1C(F)(F)F,-1,1,0.5,-0.9
CCCC(=O)Nc1ccc2c(c1)C(=O)N(C)C[C@H](OC)[C@H](C)CN(C(=O)c1ccncc1)[C@H](C)CO2,3,8,2.4,2.1
CO[C@H]1CN(C)C(=O)c2ccc(NC(=O)C3CC3)cc2OC[C@@H](C)N(CCC(F)(F)F)C[C@@H]1C,-4,-8,0.4,0.3
C[C@@H]1CN([C@@H](C)CO)C(=O)Cc2cc(NS(=O)(=O)c3cn(C)cn3)ccc2O[C@H]1CN(C)Cc1ccc(-c2ccccc2)cc1,-9,-58,15,9.0
CC(C)c1cn(CC[C@@H]2CC[C@H](NS(=O)(=O)Cc3ccccc3)[C@H](CO)O2)nn1,2,7,-1.0,-2.4
COc1ccc(CNC(=O)c2sc(=O)n(Cc3cc(C(C)=O)ccc3OC)c2C)cc1,0,3,2.7,2.6
O=C(C[C@H]1CC[C@@H](NS(=O)(=O)c2ccccc2)[C@@H](CO)O1)NCc1ccccc1F,-3,-1,-0.4,-1.2
C[C@H](CO)N1C[C@H](C)[C@H](CN(C)S(=O)(=O)c2ccc(F)cc2)Oc2ccc(N(C)C)cc2CC1=O,7,4,0.7,0.8
C[C@@H]1CCCCO[C@@H](CN(C)C(=O)C2CCCCC2)[C@H](C)CN([C@H](C)CO)C(=O)c2cc(NC(=O)CCC(F)(F)F)ccc2O1,0,0,-1.0,1.8
CC(C)CC#Cc1ccc2c(c1)O[C@@H](CN(C)Cc1ccccc1F)[C@H](C)CN([C@H](C)CO)S2(=O)=O,-3,2,1.7,1.2

# Single records, as listed above:
# COc1ccc(CNC(=O)c2sc(=O)n(Cc3cc(C(C)=O)ccc3OC)c2C)cc1 reads Ecoli rRNA inh: 0; Ecoli rRNA inh OD600: 3; Ecoli rRNA inh RFP: 2.7; AF4-AF9 inh: 2.6
# Cc1ccc(S(=O)(=O)Nc2ccc3c(c2)CC(=O)N([C@H](C)CO)C[C@H](C)[C@@H](CN(C)CC2CC2)O3)cc1 reads Ecoli rRNA inh: -1; Ecoli rRNA inh OD600: 4; Ecoli rRNA inh RFP: -1.0; AF4-AF9 inh: 2.4

# (further entries)
SMILES,Ecoli rRNA inh,Ecoli rRNA inh OD600,Ecoli rRNA inh RFP,AF4-AF9 inh
C[C@@H]1CN([C@H](C)CO)C(=O)Cc2cc(NC(=O)Nc3cccc4ccccc34)ccc2O[C@@H]1CN(C)Cc1ccc(-c2ccccc2)cc1,1,4,5.6,-18
COc1ccccc1CCC(=O)Nc1ccc2c(c1)c(=O)n(C)n2-c1cccs1,0,-16,1.0,-0.8
CC(=O)N(C)C[C@H]1Oc2ncc(C#Cc3ccncc3)cc2C(=O)N([C@@H](C)CO)C[C@@H]1C,4,11,0.2,-9.9
C[C@@H]1CN([C@H](C)CO)C(=O)c2cc(NC(=O)NC3CCCCC3)ccc2O[C@@H]1CN(C)S(=O)(=O)c1ccc(Cl)cc1,-5,-9,-0.1,-3.0
CC(=O)N[C@H]1CC[C@H](CCNC(=O)C2CCCCC2)O[C@H]1CO,3,5,6.0,-9.7
CN1C(=O)c2cc(NC(=O)C3CCOCC3)ccc2OC[C@@H]2O[C@H](CC(=O)O)CC[C@H]21,4,10,-4.3,-0.6
C[C@@H]1CN([C@@H](C)CO)C(=O)c2cccc(NC(=O)C3CCCCC3)c2O[C@H]1CN(C)Cc1ccc(C(=O)Nc2ccccc2N)cc1,-3,-8,-0.6,1.1
COc1ccccc1NC(=O)N[C@H]1C=C[C@H](CC(=O)N[C@@H](C)c2ccccc2)O[C@H]1CO,1,4,2.0,-17
CO[C@@H]1CN(C)C(=O)c2ccc(NC(=O)c3nc4ccccc4s3)cc2OC[C@H](C)NC[C@@H]1C,-3,-3,-1.2,2.2
C[C@@H]1CN([C@H](C)CO)C(=O)c2cc(NC(=O)CCCCCC(=O)Nc3ccccc3N)ccc2O[C@H]1CN(C)S(=O)(=O)c1cn(C)cn1,5,13,1.6,-3.4
COC(=O)C[C@@H]1CC[C@H]2[C@@H](COc3ccc(NC(=O)c4cnccn4)cc3C(=O)N2C)O1,2,12,-2.9,-0.2
COCC(=O)N1C[C@@H](C)[C@H](OC)CN(C)C(=O)c2cc(NC(=O)c3ccc(F)cc3)ccc2OC[C@@H]1C,3,2,-1.0,-3.0
O=C(C[C@H]1CC[C@@H](NC(=O)Nc2ccccc2F)[C@@H](CO)O1)NCc1ccc(Cl)cc1,-12,-2,3.1,1.5
Cc1ccc(S(=O)(=O)Nc2ccc3c(c2)C(=O)N([C@H](C)CO)C[C@H](C)[C@H](CN(C)C(=O)Cc2ccccc2)OCCCC[C@H](C)O3)cc1,-1,0,5.5,1.7
C[C@@H]1CN([C@@H](C)CO)C(=O)c2cc(NC(=O)Nc3ccccc3)ccc2O[C@@H]1CN(C)Cc1ccc(C(F)(F)F)cc1,-9,-35,8.9,2.0

# Structural class: the compounds so far with an aryl methoxy group.
SMILES,Ecoli rRNA inh,Ecoli rRNA inh OD600,Ecoli rRNA inh RFP,AF4-AF9 inh
COc1cccc(NC(=O)Nc2ccc3c(c2)C(=O)N(C)C[C@@H](OC)[C@H](C)CN(CC2CC2)[C@@H](C)CO3)c1,0,6,2.0,7.4
COc1ccc(NC(=O)Nc2ccc3c(c2)C(=O)N([C@H](C)CO)C[C@@H](C)[C@H](CN(C)Cc2ccc(Cl)c(Cl)c2)OCCCC[C@H](C)O3)cc1,4,2,-0.5,3.7
COc1cccc(CNC(=O)C[C@@H]2C=C[C@H](NS(=O)(=O)c3ccccc3OC)[C@@H](CO)O2)c1,4,5,-1.5,-0.4
COc1cccc(S(=O)(=O)N2C[C@H](O)COC[C@H]3O[C@H](CC(=O)N4CCN(C)CC4)CC[C@@H]32)c1,-1,5,0.3,-2.0
COc1ccc(NC(=O)N(C)C[C@H]2Oc3ccc(NS(=O)(=O)c4ccc(OC)cc4)cc3CC(=O)N([C@@H](C)CO)C[C@@H]2C)cc1,2,5,-2.0,2.2
COc1ccc(C#Cc2ccc([C@H]3[C@@H](CO)N4C(=O)CN(C(=O)c5ccncc5)C[C@@H]34)cc2)cc1,1,-1,4.8,-3.6
COc1ccc(CNC(=O)c2sc(=O)n(Cc3cc(C(C)=O)ccc3OC)c2C)cc1,0,3,2.7,2.6
COc1ccccc1CCC(=O)Nc1ccc2c(c1)c(=O)n(C)n2-c1cccs1,0,-16,1.0,-0.8
COc1ccccc1NC(=O)N[C@H]1C=C[C@H](CC(=O)N[C@@H](C)c2ccccc2)O[C@H]1CO,1,4,2.0,-17

# Assay outcomes (PubChem BioAssay)
